Assay outcomes from PubChem.
HPGD block = blocks human HPGD enzyme activity. P15428. purified HPGD, NADH fluorescence kinetic, PGE2 substrate. Potency, µM, for inactives: at the highest dose activity change, negative = inhibition, actives largely listed as inhibitors. actives 4.3% (n = 150,000). AID 894; active = well fitted inhibition curve with a large enough effect (not every such curve was filed as active); inconclusive = small, poorly fitted or top-dose-only effect, or another doubt; inactive = no such curve, though single readings can be large or run the other way;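 note: top concentration of the series not given in the record; plate controls included wells without enzyme; inactives centre near -10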
Target sequence (P15428 whole entry, looked up): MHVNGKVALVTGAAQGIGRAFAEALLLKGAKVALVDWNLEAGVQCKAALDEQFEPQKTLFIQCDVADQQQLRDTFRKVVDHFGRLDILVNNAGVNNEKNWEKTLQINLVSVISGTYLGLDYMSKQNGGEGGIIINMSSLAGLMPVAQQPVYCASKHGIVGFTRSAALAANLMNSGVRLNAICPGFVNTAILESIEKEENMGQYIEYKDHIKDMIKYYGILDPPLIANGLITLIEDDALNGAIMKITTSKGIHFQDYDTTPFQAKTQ
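20 nM HPGD preincubated 15 min at room temperature with compound in 50 mM Tris-HCl pH 8, 0.01% Tween 20. Started with 1 mM NAD+ and 30 uM prostaglandin E2; NADH fluorescence (360/450 nm) read 5 times over 30-s intervals, last minus first.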
Numbers without * were called inactive; ? = inconclusive; & = joins results of further samples. % is set by controls: 0 for no effect and ±100 for the full control effect; potency is the fitted concentration of half-maximal effect.

| SMILES | HPGD block |
| --- | --- |
| Cc1ccc(-n2ncc(C#N)c2/N=C/N2CCCCCC2)cc1 | -15% |
| Cc1noc(C)c1COc1ccc(C(=O)OC(C)C(=O)Nc2ccc(N3CCOCC3)cc2)cc1 (stereo not given) | 0% |
| N#Cc1ccccc1NC(=O)c1ccccc1OCC(=O)NCc1ccco1 | -14% |
| COc1cc(-c2nc(-c3cccc(C(F)(F)F)c3)no2)cc(OC)c1OC | ? |
| Cn1cnnc1SCC(=O)NCCc1ccccc1 | -2% |
| CC(C)CC(=O)Nc1ccc(C(=O)Cn2nc(C(=O)O)c3ccccc3c2=O)cc1 | -13% |
| CCCCC[C@H](O)/C=C/[C@H]1C=CC(=O)[C@@H]1CCCCCCC(=O)O | -7% |
| CCNC(=O)c1c(C)nc2ccccn12 | -16% |
| CC(=O)Oc1c(S(=O)(=O)c2ccccc2)c(C)nn1C(C)(C)C | -8% |
| CC(C)(C)n1ncc2c(=O)n(CC(=O)Nc3ccc4c(c3)OCO4)cnc21 | -3% |
| COc1cc(S(=O)(=O)NCc2ccc3c(c2)OCO3)ccc1Cl | 1% |
| Cn1c(N)c(C(=O)COC(=O)CSc2ccccc2)c(=O)n(C)c1=O | ? |
| Cc1ccc2oc(NC(=O)N3CCOCC3)cc(=O)c2c1 | -28% |
| CCOC(=O)C1CCN(Cc2cnc(Oc3ccc(Cl)cc3C)s2)CC1 | -10% |
| CCCSc1nc(N)nc(-c2cccs2)c1C#N | ? |
| CCN(CC)CCCNc1cc2n(c(=O)n1)CCc1cc(OC)c(OC)cc1-2 | ? |
| O=C(CN1C(=O)C2CC=CCC2C1=O)Nc1nnc(SCc2ccc(F)cc2)s1 (stereo not given) | -19% |
| CCOC(=O)c1c(NC(=O)c2ccc(Br)o2)sc2c1CCCC2 | ? |
| COc1ccc(/C=C2/C(=O)N(Cc3ccccc3)N=C2C)cc1 | -29% |
| c1ccc2c(c1)ccc1nnc(SCc3ccc4c(c3)OCO4)n12 | ? |
| COCCN(CCOC)c1nc(N)c2c(N)nc3c(c2c1C#N)CC(=O)N3Cc1ccc(Cl)cc1 | ? |
| O=C(CN1C(=O)c2ccccc2C1=O)Nc1ccc(S(=O)(=O)NCC2CCCO2)cc1 (stereo not given) | -17% |
| C=CCNC(=O)CC(=O)N/N=C/c1ccc(F)cc1 | -12% |
| CC(NS(=O)(=O)c1ccc(F)cc1)C(=O)NCc1ccncc1 (stereo not given) | -12% |
| Clc1ccc(-c2noc(CCCOc3ccccc3)n2)cc1 | -3% |
| Cc1cc(NS(=O)(=O)c2ccc(NC(=O)CCCOc3ccccc3)cc2)no1 | -7% |
| CCOc1cc(/C=C2\SC(=O)N=C2N)ccc1O | ? |
| COc1ccc(C(=O)Nc2nc3ccc4nc(C)sc4c3s2)cc1 | ? |
| CCOC(=O)c1ccc(NC(=O)N2CCN(S(C)(=O)=O)CC2)cc1 | -1% |
| CCN(CC)C(=O)CSc1nnc(-c2ccc(S(=O)(=O)NCc3ccccc3Cl)cc2)o1 | -24% |
| Cc1cccc(N(CC(=O)N/N=C/c2ccc(OCC(=O)NCc3ccco3)cc2)S(C)(=O)=O)c1C | 25µM* |
| Cc1cccc(-c2noc(CCC(=O)Nc3ccccc3)n2)c1 | -28% |
| CC(C)CC(CO)N1CCN(C(=O)c2ccc(Cl)cc2Cl)CCC1=O (stereo not given) | -4% |
| Cc1nc(-c2cnn(-c3ccccc3)c2)c2cc(C)oc2n1 | ? |
| Clc1ccc(OCc2nc(-c3ccncc3)no2)c(Cl)c1 | 13µM* |
| O=P(O)(O)c1ccccc1OCCOCCOc1ccccc1P(=O)(O)O | -7% |
| COc1ccc(C2NCCc3c2[nH]c2ccccc32)cc1CSc1nc2ccccc2s1 (stereo not given) | -24% |
| CCCCCNC(=O)c1c[nH]c2ccc(S(=O)(=O)N3CCC4(CC3)OCCO4)cc2c1=O | ? |
| CC(C)(C)n1nc2c(c1NC(=O)c1ccc(S(=O)(=O)N3CCCCC3)cc1)CS(=O)C2 (stereo not given) | -1% |
| CC(C)COc1ccc(C(=O)NC(=S)Nc2ccc(CN3CCOCC3)cc2)cc1 | -2% |
| CC1CN(C(=O)CN2C(=O)NC3(CCCCCC3)C2=O)CC(C)O1 (stereo not given) | -13% |
| Cc1nc2c(C)cccn2c1/C(O)=C1\C(=O)C(=O)N(CCN(C)C)C1c1ccncc1 (stereo not given) | -9% |
| CC(C)(C)C(=O)Nc1nc(-c2ccccc2)ns1 | -16% |
| CCCSc1nnc2n(N)c(=O)c3ccccc3n12 | -2% |
| COCCNC(=O)COc1ccc(C)c(C)c1 | 20µM* |
| COc1ccc(N=Cc2sc(O)c3ccccc23)cc1 | -26% |
| COc1ccc(Nc2oc(-c3ccccc3Cl)nc2C#N)cc1 | ? |
| CC(C)OC(=O)[C@@H]1C=C[C@H](C)[C@@H](CCCCOCc2ccccc2)O1 | -10% |
| CCN(CC)CCNC(=O)c1cc(S(C)(=O)=O)ccc1OC | -6%&-12%&-10%&-4% |
| CCN(C(=O)COC(=O)c1c2c(nc3ccccc13)/C(=C/c1ccccc1)CC(C)C2)C1CCS(=O)(=O)C1 (stereo not given) | ? |
| Cc1cnc(C(=O)Nc2ccc(C)c(S(=O)(=O)N(C)C)c2)cn1 | -14% |
| Cc1cc2oc(=O)cc(CN3CCC(C)CC3)c2c(C)c1Cl | -10% |
| Cc1ccc(Cn2c(=O)c3cccnc3n(CC(=O)Nc3cccc(C(F)(F)F)c3)c2=O)cc1 | ? |
| C/C(=N\NC(=O)CCc1c[nH]c2ccccc12)c1cccc([N+](=O)[O-])c1 | -4% |
| COc1ccc(NC(=O)Cn2nnc(-c3ccc(CN4CCOCC4)cc3)n2)c(OC)c1 | -8% |
| Cc1ccc(S(=O)(=O)N2CCC(C(=O)N[C@H](C(=O)NCC3CCCO3)C(C)C)CC2)cc1 (stereo not given in full) | -10% |

Later entries
| SMILES | HPGD block |
| --- | --- |
| CC(C)(C)c1cc(Br)c(O)c(CN(Cc2cc(C(C)(C)C)cc(Br)c2O)C2CCCCC2)c1 | 3% |
| CC(C)NC(=O)NC(=O)COC(=O)c1ccc(OC(F)(F)F)cc1 | -14% |
| CN(C)c1ccc(CN2CCCCC2)cc1 | -5% |
| O=c1[nH]n(-c2cccc3cccnc23)c(=O)c2ccccc12 | 25µM* |
| Cc1ccc(CO/N=C\Cc2snc(Sc3ncc(C(F)(F)F)cc3Cl)c2C#N)cc1 | -24% |
| COC(=O)CNC(c1ccccc1Cl)c1cc(Br)ccc1NC(=O)CCN1CCOCC1 (stereo not given) | -2% |
| O=C1C2C(C(=O)N1/N=C/c1cc([N+](=O)[O-])ccc1O)C1C=CC2C12CC2 (stereo not given) | -22% |
| O=C(CSc1nc2[nH]ncc2c(=O)[nH]1)NCc1ccccc1Cl | -7% |
| CC1(C)Cc2c(C#N)c(OCC(=O)c3ccccc3)nc(-c3ccoc3)c2CO1 | ? |
| COCCn1cnc2c1c(=O)n(CC(=O)OCC(=O)NCCCc1ccccc1)c(=O)n2Cc1ccccc1 | -14% |
| CC1(C)CC(=O)C(C=Nc2ccc(Cl)cn2)=C(O)C1 | -22% |
| CCOC(=O)Cc1csc(N/C(=N/S(=O)(=O)c2ccc(Cl)cc2)c2ccccc2)n1 | ? |
| COc1ccccc1N(CC(=O)NCc1ccccc1)C(=O)CCC(=O)Nc1ccccn1 | -14% |
| O=C(Nc1ccccc1)c1ccc(S(=O)(=O)NCc2ccco2)cc1 | 0% |
| COc1ccc(C2C3=C(CC(C)(C)CC3=O)Nc3cc4c(cc32)OCO4)cc1 (stereo not given) | ? |
| COC(=O)c1cc(C(C)=O)n2ccccc12 | -12% |
| COC(=O)CNS(=O)(=O)c1ccc(Cc2ccc(S(=O)(=O)NCC(=O)OC)cc2)cc1 | ? |
| O=C(CSc1ncn[nH]1)Nc1ccccc1-c1ccccc1 | -8% |
| CC(C)CC(=O)NCCCN1CCN(CCCNC(=O)CC(C)C)CC1 | -13% |
| O=C(CSc1nc2cc(Cl)ccc2s1)N1CCCc2ccccc21 | ? |
| S=c1[nH]nc(Cc2cccc3ccccc23)o1 | ? |
| Cc1cc(CN2C(=O)c3ccccc3C2=O)no1 | -7% |
| Cc1cccc(Cn2c(N(C)CCO)nc3c2c(=O)[nH]c(=O)n3C)c1 | -15% |
| CCOc1ccc(-n2c(=S)sc3c(=O)[nH]c(SCC(=O)NCC4CCCO4)nc32)cc1 (stereo not given) | -13% |

Quoted from the results shown (5 entries):
| SMILES | HPGD block |
| --- | --- |
| COC(=O)CNS(=O)(=O)c1ccc(Cc2ccc(S(=O)(=O)NCC(=O)OC)cc2)cc1 | ? |
| O=C(CSc1ncn[nH]1)Nc1ccccc1-c1ccccc1 | -8% |
| CC(C)CC(=O)NCCCN1CCN(CCCNC(=O)CC(C)C)CC1 | -13% |
| O=C(CSc1nc2cc(Cl)ccc2s1)N1CCCc2ccccc21 | ? |
| S=c1[nH]nc(Cc2cccc3ccccc23)o1 | ? |

The list goes on.
| SMILES | HPGD block |
| --- | --- |
| Cc1nn2c(SCC(=O)c3cccs3)cc(C(C)(C)C)nc2c1-c1ccccc1 | -6% |
| CCC(=O)OC1CSc2nc3ccccc3n2C1 (stereo not given) | -6% |
| CC(C)(C)c1ccc(OC2=CS(=O)(=O)c3ccccc32)cc1 | ? |
| CCc1nnc(NC(=O)CSc2nnc(-c3ccoc3C)n2CC(C)C)s1 | -11% |
| COc1cc(C2C(C#N)=C(N)Oc3n[nH]c(-c4ccccn4)c32)cc(OC)c1OC (stereo not given) | 0% |
| Cc1cc(=O)n2nc(-c3ccccc3)sc2c1C#N | ? |
| CN(C)S(=O)(=O)c1ccc(/C(O)=C2/C(=O)C(=O)N(Cc3cccnc3)C2c2ccco2)cc1 (stereo not given) | -12% |
| C=CCn1c(SCc2cc(C(C)=O)ccc2OCC)nc2ccccc2c1=O | -12% |

The final 3 records of the section above are carried over, then new ones follow.
| SMILES | HPGD block |
| --- | --- |
| Cc1cc(=O)n2nc(-c3ccccc3)sc2c1C#N | ? |
| CN(C)S(=O)(=O)c1ccc(/C(O)=C2/C(=O)C(=O)N(Cc3cccnc3)C2c2ccco2)cc1 (stereo not given) | -12% |
| C=CCn1c(SCc2cc(C(C)=O)ccc2OCC)nc2ccccc2c1=O | -12% |
| CC(C(=O)N1CCCCC1)n1sc2ccccc2c1=O (stereo not given) | 3.5µM* |
| CC1CC(NC(=O)c2ncn[nH]2)CC(C)(C)C1 (stereo not given) | -11% |
| O=C(O)[C@@H]1[C@H](C(=O)O)[C@H]2C(=O)C=C[C@H]1N2Cc1ccccc1 | -6% |
| Cn1c(=O)c2c(nc(N3CCN(c4ccccn4)CC3)n2Cc2ccccc2Cl)n(C)c1=O | -12% |
| CCCOP(=O)(c1ccc(N(C)C)cc1)C(O)c1ccccc1OC (stereo not given) | -4% |
| Cc1cc(NC(=O)COc2ncnc3sc(C)c(C)c23)no1 | -7% |
| O=C(Nc1nc2ccccc2n1CCN1CCCCC1)c1ccc(Cl)cc1 | ? |
| CCCOc1ccc(N2C(=O)CC(N3CCN(c4nc5ccccc5s4)CC3)C2=O)cc1 (stereo not given) | -15% |
| O=C(O)CCCC(=O)OCCCCc1cccs1 | -4% |
| CS(=O)(=O)N(Cc1ccco1)Cc1ccccc1Cl | ? |
| CCOC(=O)N1CCN(C(=O)CSc2nnc(CNC(=O)c3c(F)cccc3Cl)o2)CC1 | -11% |
| COC(=O)CSc1nnc(-c2ccncc2)n1N | -1% |
| CCOC(=O)C(NCCc1ccccc1)(NC(C)=O)C(F)(F)F (stereo not given) | -4% |
| CC(C)(C)SCCNC(=O)CN1C(=O)c2ccccc2S1(=O)=O | 2% |
| COc1ccc(C2C(C#N)=C(N)Oc3cc(C)n(Cc4ccco4)c(=O)c32)cc1 (stereo not given) | 3% |
| CCCN(CCC)c1nc(C)cc(C(C#N)c2nc3ccccc3o2)n1 (stereo not given) | ? |
| CCNC(=S)N/N=C/c1cc(Br)cc(Br)c1OC | -6% |
| NC1(C(=O)O)CC(C(=O)O)C1 (stereo not given) | -2%&-11% |
| CCC1(CC)C(=O)NC(=O)NC1=Nc1cccc(OC)c1 | -6% |
| CO/N=C(/CNC(=O)c1cccc(Cl)c1)c1ccc(Cl)cc1 | -1% |
| CCn1ncc(C2=NOC(C(=O)NCC(C)C)C2)c1C (stereo not given) | -13% |
| CCOCCCNC(=O)CN1C(=O)CSc2ccccc21 | -10% |
| CC(C)N(Cc1nc(-c2ccccc2)no1)C(=O)C1CCCCC1 | -9% |
| Cc1cccc(OCC(=O)N/N=C\c2cc3c(cc2[N+](=O)[O-])OCO3)c1C | -5% |
| O=C1CCc2cc(S(=O)(=O)N3CCN(c4cccc(Cl)c4)CC3)ccc2N1 | -6% |
| O=C(Nc1ccccc1)N1CCC2(CC1)CCN(C(=O)c1cccc(F)c1)CC2 | -5% |
| CC(C)NC(=O)C(C)n1cccc1C(=O)c1ccccc1 (stereo not given) | -11% |
| O=S(=O)(Nc1cccc2cn[nH]c12)c1ccc(F)cc1 | -4% |
| Cn1cnnc1SCC(=O)N1CCC(Cc2ccccc2)CC1 | -3% |
| Cc1ccccc1-c1nc(CS(=O)(=O)CC(=O)NCCCN2CCCC2)c(C)o1 | -6% |
| Cn1c(=O)c2c(nc(SCC(=O)O)n2Cc2cccc(C(F)(F)F)c2)n(C)c1=O | -15% |
| CCCCCCCCCCCCCCCCCCOC[C@H](COP(=O)([O-])OCC[N+](C)(C)C)OC | -14%&-4% |
| Cn1c(=O)c2cn3c(c2n(C)c1=O)C(c1ccccc1)CC(c1ccccc1)=N3 (stereo not given) | -13% |
| O=[N+]([O-])c1ccc(N2CCN(C(=S)NC3CCCCC3)CC2)cc1 | -21% |
| COc1cccc(C2/C(=C(\O)c3ccc4c(c3)OCCO4)C(=O)C(=O)N2CCN(C)C)c1 (stereo not given) | -21% |
| O=C(CCNS(=O)(=O)c1cccc2nsnc12)N1CCc2ccccc21 | -7% |
| COc1ccc(Sc2ccccc2CN(C)C)cc1OC | -4% |
| CC1CC(=O)N(C)c2ccc([N+](=O)[O-])cc2N1 (stereo not given) | -13% |

The list is partial (hit frequency here may not be typical).
